# Ecoli growth: E. coli growth inhibition, primary screen, OD600 | Escherichia coli growth, 23 h; active compounds read low | OD600 absorbance (no concentration beside the values) | 0.21% of 330,000 active;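 active = OD600 absorbance below the run mean of sample wells minus 3.6 SD, in any replicate, cut at about 0.56 in these data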;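 note: stock transfer was 300 nL into about 60 µL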
# FGF22 binding: binders of human FGF22 protein, primary screen, FGF22 synaptogenesis inhibitor project, biophysical, thermal shift, single point | Fibroblast growth factor 22 (Homo sapiens), Q9HCT0 | recombinant FGF22 thermal shift, SYPRO orange fluorescence; percent of sucrose octasulfate shift, DMSO zero | calls only at 9.99 µM | 1.5% of 340,000 active;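 active = melting point raised past a set limit in the mean and every replicate; inconclusive = no clear call; three in four hits are not shown here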
# Target sequence (Q9HCT0 whole entry, looked up): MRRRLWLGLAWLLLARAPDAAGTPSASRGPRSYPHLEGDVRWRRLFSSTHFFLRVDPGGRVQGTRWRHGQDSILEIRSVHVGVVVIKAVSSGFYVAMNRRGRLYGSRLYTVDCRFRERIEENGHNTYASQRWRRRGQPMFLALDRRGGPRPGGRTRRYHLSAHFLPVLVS
# RanGTP-Impb inh: inhibitors of RanGTP-importin-beta interaction, primary screen, biochemical, FRET, CFP-Ran, YFP-importin-beta, homogeneous | Ran GTPase (GTP-bound) - importin-beta complex | cell-free CFP-Ran/YFP-importin-beta FRET ratio | inhibition, % (no concentration beside the values) | 1.1% of 300,000 active | AID 2216, 2009;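 active = most replicates above 15%; inconclusive = exactly half above 15%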;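 note: 0% = DMSO wells and 100% = Ran loaded with GDP instead of GTP; wells of about 40 µL received 100 nL stock; the first replicate is given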
# AF4-AF9 inh: inhibitors of AF4 peptide binding to AF9, primary screen, biochemical, AlphaScreen, biotin-AF4 peptide, FLAG-AF9, single point; Protein AF-9 (Homo sapiens), P42568; inhibition, % at 10 µM; 0.47% of 350,000 active;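 active = every replicate reaching a set inhibition limit, whatever the replicate mean, cut at about 25% in these data; inconclusive = mean inhibition reaches that limit but some replicates miss it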;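 note: 0% = plate neutral control median and 100% = total signal loss; the record names both 10 and 1 µM as test concentration; the first replicate is given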
# UCH37 inh: inhibitors of human UCH37 deubiquitinase, primary screen, biochemical, Ub-AMC cleavage, fluorescence; purified proteasome/UCH37; 0.33% of 330,000 active; inhibition, % (test concentration not listed); AID 588478, 2011;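 active = mean of two replicates above 20%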;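 note: 0% = compound-free wells with enzyme and 100% = wells lacking proteasome; stock transfer was 100 nL into about 20 µL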
# Target sequence (Q9Y5K5 whole entry, looked up): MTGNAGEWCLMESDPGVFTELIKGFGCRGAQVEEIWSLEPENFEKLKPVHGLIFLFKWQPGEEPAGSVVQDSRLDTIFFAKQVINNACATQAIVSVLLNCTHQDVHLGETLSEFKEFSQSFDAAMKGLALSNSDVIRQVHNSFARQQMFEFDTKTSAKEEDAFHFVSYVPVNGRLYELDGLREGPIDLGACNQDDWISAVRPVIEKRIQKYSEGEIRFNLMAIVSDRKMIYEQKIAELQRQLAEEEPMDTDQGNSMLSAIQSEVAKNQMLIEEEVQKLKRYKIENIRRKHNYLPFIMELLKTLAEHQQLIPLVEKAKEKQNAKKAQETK
#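 Material: Human UCH37 enzyme supplied as purified proteasome complex | Schedule: 30 min compound-proteasome preincubation then 25 min substrate reaction, room temperature | Detection: AMC fluorescence from Ub-AMC cleavage, excitation 355 nm, emission 460 nm | Benchmarks: Wells without proteasome as full block, compound-free enzyme plus substrate as uninhibited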
# HNF4A DNA FP: change in binding of human HNF4A to DNA, primary screen, biochemical, fluorescence polarization, FITC-DNA; Hepatocyte nuclear factor 4-alpha (Homo sapiens), P41235; 1 h; 0.3% of 360,000 active; activity change, % at 10 µM; in the data active = activity change above about 30%, passing the limit was not always enough;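 note: controls were the assay level and a saturating level of protein; the project sought stronger binding though the title names inhibitors; some compounds called inactive have numbers as strong as hits; positive values seem to mean higher polarization but the record does not say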
# Target sequence (P41235 whole entry, looked up): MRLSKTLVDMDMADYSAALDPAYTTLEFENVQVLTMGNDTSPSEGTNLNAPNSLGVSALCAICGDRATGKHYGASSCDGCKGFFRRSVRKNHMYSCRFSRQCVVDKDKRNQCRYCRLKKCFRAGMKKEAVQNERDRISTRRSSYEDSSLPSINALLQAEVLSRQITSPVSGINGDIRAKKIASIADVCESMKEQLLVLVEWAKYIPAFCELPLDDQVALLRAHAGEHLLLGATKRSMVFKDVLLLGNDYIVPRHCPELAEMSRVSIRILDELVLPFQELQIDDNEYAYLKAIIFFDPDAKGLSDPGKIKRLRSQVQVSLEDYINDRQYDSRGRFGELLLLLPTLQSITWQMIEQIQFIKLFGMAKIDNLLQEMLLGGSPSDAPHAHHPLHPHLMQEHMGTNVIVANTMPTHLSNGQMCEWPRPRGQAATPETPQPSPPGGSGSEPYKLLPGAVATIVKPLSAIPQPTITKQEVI
# Vif TR-FRET: inhibitors of Vif binding to APOBEC3G peptide, primary screen, biochemical, TR-FRET, GST-Vif 1-94, biotin-A3G peptide, dose response retest (AID 1117319); Virion infectivity factor (Human immunodeficiency virus type 1 group M subtype B (isolate …; 0.57% of 260,000 active; TR-FRET GST-Vif / biotin-A3G peptide binding; higher % means a stronger effect; test concentration not given here; strong numbers were not always called active; inhibition, %, or IC50 in µM where a hit was titrated;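 active = above the screen mean plus three standard deviations and confirmed in dose response; inconclusive = results disagree or hit not tested in dose response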;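 note: Vif residues 1-94 fused to GST binding biotinylated APOBEC3G peptide 110-148; 0% = full assay without inhibitor and 100% = GST in place of GST-Vif; retest series ran down from 100 µM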
# * = called active by the depositor; i = inactive; ? = inconclusive; . = not tested or not shown; & = joins results of further samples. Only part of the results is shown, so the mix of outcomes need not match the whole.
SMILES,Ecoli growth,FGF22 binding,RanGTP-Impb inh,AF4-AF9 inh,UCH37 inh,HNF4A DNA FP,Vif TR-FRET
Cc1ccc(NC(=O)COC(=O)/C=C/c2ccco2)cc1S(=O)(=O)N(C)C,0.692,.,3.2,.,7.7,-0.1,.
COc1cccc(NC(=O)c2cc([N+](=O)[O-])ccc2N2CCN(C)CC2)c1,0.648,i,1.5,0.5,5.9,0.5,-1.3%
Cc1ccccc1N=C1SC(CC(=O)Nc2ccc3ccccc3c2)C(=O)N1Cc1ccccn1 (stereo unspecified),.,.,4.3,.,2.5,3.7,5.7%
CC(C)Cc1nnc(NS(=O)(=O)Cc2ccccc2)s1,0.724,.,-0.4,.,3.3,-1.6,4.2%
CNC(=O)c1nn(-c2ccccc2)ccc1=O,0.75,.,-1.8,.,5.6,1.6,17.7%
Cc1ccc(S(=O)(=O)N(CCO)c2cc3c(s2)CCCC3)cc1,0.748,.,6.7,.,3.5,-3.4,0.2%
O=S(=O)(NCc1ccccc1)c1ccccc1Br,0.662,i,-2.1,-1.8,0.4,-3.1,-8.8%
Cc1cc(Br)ccc1NC(=O)CN(C)C(=O)CNC(=O)Cc1ccccc1,0.685,i,.,-1.6,0.4,-4.4,.
CCNC(=O)NC(=O)C(C)Sc1nc2cc(C(=O)OC)ccc2c(=O)n1-c1ccccc1 (stereo unspecified),0.789,.,-0.4,.,-4.7,-0.1,-2.6%&3.1%
Cc1nnc(SCc2ccc([N+](=O)[O-])cc2)o1,0.675,i,3.1,-0.4,1.0,0.0,1.5%
CCCCN1C(=O)Nc2ccccc2S1=O (stereo unspecified),0.656,.,1.0,.,3.3,-3.9,.
CN(C)CCCN(C(=O)CCc1ccccc1)c1nc2ccc(F)cc2s1,0.662,.,2.7,.,6.1,-0.6,.
Cc1nnc(N2CCc3ccccc3C2)[nH]c1=O,0.75,.,-0.9,.,0.5,-1.5,74.0%
Cc1ccc(C)c(C(=O)Nc2cc(C)nn2-c2nc(C)cc(C)n2)c1,0.668,i,-0.4,-0.2,2.5,2.8,-8.8%
CCN(C(=O)CN1CCCCC1)c1c(N)n(Cc2ccccc2)c(=O)[nH]c1=O,.,i,.,0.8,.,4.1,3.1%
COc1ccc(C(=O)c2c[nH]c(C(=O)NCc3cccnc3)c2)cc1,0.775,.,?,.,2.7,0.3,11.8%
O=C(Nc1ccc(S(=O)(=O)N2CCCCC2)cc1)c1ccccc1F,0.667,i,-1.3,0.2,-0.2,1.1,.
CCN(CC(=O)NCc1ccc(F)cc1)C(=O)c1ccc(C(=O)c2ccccc2)cc1,0.651,i,-1.1,-23.2,6.0,-0.6,.
COc1cc(C(=S)N2CCOCC2)ccc1OS(=O)(=O)c1ccc(Cl)cc1,0.693,i,-0.8,-32.0,4.5,1.2,.
CC1CCN(S(=O)(=O)c2ccc3nc(-c4ccccn4)cc(C(=O)NCCN(C)Cc4ccccc4)c3c2)CC1,0.711,i,-1.5,-0.2,0.5,1.4,25.2%
CCO[C@@H]1OC(C(=O)N2CCOCC2)=C[C@H](c2ccccc2)[C@H]1CCCO,0.814,i,4.8,0.3,2.1,-0.7,-13.3%
CCOP(C)(=O)C1(C(=O)OCc2ccccc2)CC1 (stereo unspecified),0.659,.,-1.7,.,1.6,1.1,10.6%
O=C(CN1CC(=O)Oc2ccccc21)NCc1ccco1,0.767,.,19.0*,.,2.3,0.9,4.1%
CCN(CC(=O)NCc1cccs1)C(=O)c1cccc(S(=O)(=O)Nc2ccc(F)cc2)c1,0.684,i,.,?,1.3,-3.3,.
CCOC(=O)C1(Cc2cccc(OC)c2)CCCN(C(=O)c2cc(C)[nH]n2)C1 (stereo unspecified),0.685,i,0.5,1.3,-0.1,1.7,.
SMILES,Ecoli growth,FGF22 binding,RanGTP-Impb inh,AF4-AF9 inh,UCH37 inh,HNF4A DNA FP,Vif TR-FRET
Cc1sc2ncnc(N3CCC(C(=O)N(C)CC(=O)Nc4ccccc4Br)CC3)c2c1C,0.683,i,-1.2,12.0,4.2,2.9,.
COc1ccc(CN2C(=O)c3cccnc3C2Nc2ccc(OC)c(Cl)c2)cc1 (stereo unspecified),0.757,i,0.9,11.3,0.9,0.3,-1.3%
COC(=O)c1ccc(OCC(O)CN(CCO)CC(O)Cn2ccc3ccccc32)cc1 (stereo unspecified),0.669,i,5.5,2.2,2.1,1.4,.
N#Cc1cc(C(=O)c2ccccc2OCC(=O)Nc2ccccc2)cn(C2CCCCC2)c1=O,0.7,i,0.0,-0.7,-2.6,-5.5,21.0%
O=C(CSc1ccccc1C(=O)O)Nc1ccc2c(c1)OCO2,0.644,i,.,-2.5,1.0,0.3,-5.3%
O=C(C1=C[C@H](c2ccc(C(F)(F)F)cc2)C[C@H](OCc2ccc(CO)cc2)O1)N1CCCCCCC1,.,.,2.3,.,.,2.4,5.7%
O=C(c1ccc2c(c1)CCN2S(=O)(=O)c1ccccc1)N1CCN(c2ccc(F)cc2)CC1,0.714,i,2.8,-10.1,5.7,1.7,.
CC(C)(C)NC(=O)C(c1ccccn1)N(C(=O)C1CSC(=O)C1)c1ccc(F)cc1 (stereo unspecified),0.747,.,-4.7,.,1.4,3.2,-1.2%
CCCc1nnc(NC(=O)CCC(=O)N2CCN(Cc3cc(Cl)ccc3OC)CC2)s1,0.653,i,-0.5,-1.5,1.2,-0.6,.
O=C(/C=C/c1ccccc1Cl)NC1CCCCC1,0.681,i,1.9,-1.4,2.9,0.7,-3.0%
Cn1c(=O)oc2cc(S(=O)(=O)NCCC(=O)NCCc3ccccc3)ccc21,0.706,i,-0.8,10.1,5.0,3.3,2.2%
Cc1ccc(/C=N/NC(=S)NC(C)C)o1,.,.,-4.1,.,.,5.5,18.9%
O=C(c1cc(-c2cccs2)on1)N1CCc2ccccc2C1,0.728,.,2.4,.,0.9,0.1,9.6%
Cc1ccc(-c2ccc3nnc(SCC(=O)NCC4CCCO4)n3n2)cc1 (stereo unspecified),0.725,i,-0.4,5.7,-1.9,-2.3,26.8%
CCOc1ccc(S(=O)(=O)N2CCC(C(=O)NCCc3ccc(OC)c(OC)c3)CC2)cc1,0.695,i,0.5,0.7,-2.1,-3.6,-6.2%
COc1ccccc1-c1nc2n(n1)C(c1ccc(Cl)cc1)C(C(N)=O)=C(C)N2 (stereo unspecified),0.706,.,-1.2,.,0.7,2.0,16.5%
Cc1ccc(N(Cc2ccc(C(=O)NCCSc3ccccn3)cc2)S(C)(=O)=O)cc1C,0.721,i,8.7,-1.5,1.8,2.7,.
Cc1cnc(NC(=O)c2ccccn2)s1,0.685,i,1.4,-3.6,2.8,-2.8,2.6%
CCc1ccccc1NC(=O)CCc1c(C)nc(SC)nc1C,0.637,i,-3.0,-7.8,1.3,1.1,.
COc1ccccc1CNc1cncnc1,0.622,i,0.3,-10.1,-15.3,1.7,.
COc1ccc(/C=C/c2ccncc2)cc1OC,0.702,.,0.3,.,-16.5,-0.5,15.9%
COc1ccc(CCNC(=O)CCc2ccc(S(=O)(=O)NC(C)C)cc2)cc1OC,0.7,.,2.4,.,5.4,1.5,-0.8%
COCCn1c(N)c(N(Cc2ccccc2)C(=O)c2ccc(-c3ccc(Cl)cc3)o2)c(=O)[nH]c1=O,0.617,i,1.0,0.8,-1.2,-1.5,5.8%
O=C(CCc1ccccc1)NC1C2CC3CC(C2)CC1C3 (stereo unspecified),0.68,i,-1.6,2.1,5.2,1.7,.
O=C(COc1ccc(Cl)cc1Cl)N/N=C/c1ccc(OC2OC(CO)C(O)C(O)C2O)cc1 (stereo unspecified),.,i,3.4,-8.1,.,2.6,2.6%

# By substructure, the compounds so far containing a furan ring, fused or not (4)
SMILES,Ecoli growth,FGF22 binding,RanGTP-Impb inh,AF4-AF9 inh,UCH37 inh,HNF4A DNA FP,Vif TR-FRET
Cc1ccc(NC(=O)COC(=O)/C=C/c2ccco2)cc1S(=O)(=O)N(C)C,0.692,.,3.2,.,7.7,-0.1,.
O=C(CN1CC(=O)Oc2ccccc21)NCc1ccco1,0.767,.,19.0*,.,2.3,0.9,4.1%
Cc1ccc(/C=N/NC(=S)NC(C)C)o1,.,.,-4.1,.,.,5.5,18.9%
COCCn1c(N)c(N(Cc2ccccc2)C(=O)c2ccc(-c3ccc(Cl)cc3)o2)c(=O)[nH]c1=O,0.617,i,1.0,0.8,-1.2,-1.5,5.8%

# Continuation.
SMILES,Ecoli growth,FGF22 binding,RanGTP-Impb inh,AF4-AF9 inh,UCH37 inh,HNF4A DNA FP,Vif TR-FRET
CCOC(=O)N1CCN(CC(O)COCc2ccccc2)CC1 (stereo unspecified),0.691,.,0.6,.,0.1,0.5,1.8%
Cc1ccc(-c2c[n+](Cc3ccc(Cl)c(Cl)c3)c3n2CCC3)cc1,0.635,.,2.0,.,4.7,2.1,.
Cc1c(Cl)cccc1NC(=O)C1CCCCC1,0.678,i,0.8,-2.7,0.0,.,-0.2%
CC(C)(C)c1cc(NC(=O)c2cccc([N+](=O)[O-])c2)no1,0.745,.,2.5,.,0.7,-0.8,?
CCCCC(NC(=O)c1ccccc1)C(=O)OCC(=O)N1c2ccccc2Sc2ccccc21 (stereo unspecified),0.779,.,-0.7,.,3.5,-0.5,-1.4%
NC(=O)COC(=O)c1cccc(S(=O)(=O)N2CCN(c3ccccc3)CC2)c1,0.652,i,-1.6,0.7,4.1,-4.7,31.1%
CCOC(=O)/C=c1\s/c(=C\c2ccc(C)cc2)c(=O)n1CC(=O)NCc1ccco1,.,.,-0.2,.,.,3.3,?
NC(=O)c1cc2nc(-c3ccco3)cc(C(F)(F)F)n2n1,0.671,.,9.2,.,-131.1,-3.6,6.8%
O=[N+]([O-])c1ccc(Oc2cccc(C(F)(F)F)c2)nc1,0.56,i,-1.6,-0.8,0.9,2.6,-3.6%
O=C(Nc1ccc(Cl)cn1)c1ccc2c(Cl)c3c(nc2c1)CCC3,0.708,i,3.4,4.7,-9.7,-2.2,-4.6%
COC(=O)c1ccc(Oc2nc3c(c(=O)n(C)c(=O)n3C)n2CCC(C)C)cc1,0.769,.,0.7,.,6.7,-1.9,1.9%
CC(=O)Oc1ccc(-c2cc3ccccc3oc2=O)cc1,0.638,i,3.3,-0.3,-62.8,-2.1,.
Cc1ccc2c(c1)CC1(CN2C)C(=O)OC2(CCCCC2)OC1=O,0.672,.,25.9*,.,5.3,-0.4,15.9%
COc1ccc(OCC(=O)Nc2cc(OC)cc(OC)c2)cc1,0.664,.,-0.4,.,2.4,-2.8,-2.5%
COc1cc(/C=C(\C#N)C(N)=O)ccc1OCc1c(C)no[n+]1[O-],0.649,i,-4.3,-26.4,4.1,0.5,28.6%
CCOc1cc(/C=N/n2c(COc3ccccc3)n[nH]c2=S)ccc1O,.,i,?,-1.6,.,2.0,-2.7%
Cc1ccc(O)c(-c2cc(C(=O)NCc3ccncc3)[nH]n2)c1,0.696,.,1.6,.,0.9,0.2,4.5%
COc1cc(Br)c(CN2CCCN(C)CC2)cc1OC,0.678,i,3.9,0.3,1.2,-0.5,.
COc1ccc(C(=O)Nc2ccc3c(c2)OCCO3)cc1S(=O)(=O)N1CCOCC1,0.627,i,.,0.9,2.7,-1.7,.
COc1ccc(OC)c(CNC(=O)c2cc(=O)[nH]c3ccc(S(=O)(=O)N4CCCC4)cc23)c1,0.654,.,1.0,-0.6,2.4,.,.
COc1ccc2occ(C(=O)c3ccc(N=C(C)N(C)C)cc3)c2c1,0.705,.,1.1,.,-2.2,1.7,17.8%
COc1ccccc1N1C(=O)CC(N2CCN(c3ccc(F)cc3)CC2)C1=O (stereo unspecified),0.619,i,0.0,-0.3,0.8,-2.1,.
